Compound activity deposited in PubChem by National Center for Advancing Translational Sciences (NCATS).
Sfp inh: qHTS Assay for Inhibitors of Bacillus subtilis Sfp phosphopantetheinyl transferase (PPTase) | Biochemical Sfp PPTase activity, qHTS | Potency, µM, for the others: max response, negative = inhibition, usual class: inhibitors | 310,000 compounds, 3.5% hits; active = well fitted inhibition curve with a large enough effect; inconclusive = small, poorly fitted or top-dose-only effect, or another doubt; inactive = no such curve, though single readings can be large or run the other way;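 note: the enzyme is Sfp with the accession as filed and its product quenches rhodamine fluorescence; potency is the fitted concentration of half-maximal effect; 0% = enzyme reaction without inhibitor and -100% = no enzyme wells; top concentration of the series not given in the record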
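Buffer: 50 mM Hepes-Na pH 7.6, 10 mM MgCl2, 0.01% Nonidet P-40, 0.01% BSA. Enzyme 15 nM, pre-exposed to compound 15 min; substrates then added and fluorescence change tracked over 30 min.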
TRPV1 PAM: HTS Assay for Compounds that Act as Potentiators of the Vanilloid Receptor 1. Transient receptor potential cation channel subfamily V member 1 (Homo sapiens), Q8NER1. potentiation, % at 8.33 µM. TRPV1-expressing cells, Fluo-8 calcium influx, capsaicin EC20 potentiation; host cell line not named in the record; control for the full effect not named in the record. 320,000 compounds, 0.02% hits. AID 540277, 2011; active means potentiation above 80%; inconclusive means 30% to 80%; inactive means below 30%; note: 0% is about no effect
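Fluo-8 calcium influx in TRPV1-expressing cells, kinetic read (ex 480/em 520 nm). Compound added and read 3 min for agonist activity, followed by capsaicin at EC20 final and 2 min further read for enhancement.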
ClpP mod: qHTS Assay for Activators of ClpP; ATP-dependent Clp protease proteolytic subunit (Bacillus subtilis (strain 168)), P80244; purified B. subtilis ClpP, FRET peptide cleavage, 20 min; Potency, µM (titrated, usually from 57.5 µM), for inactives: at the top dose activity change, negative = active; 340,000 compounds, 1.9% hits; AID 651965, 2013; active = well fitted falling curve with a large enough effect; inconclusive = small, poorly fitted or top-dose-only effect; inactive = no such curve, though single readings can be large or run the other way; note: potency is the fitted concentration of half-maximal effect; the source files actives as falling curves though it sought activators and does not explain the sign; nearly all actives have a fitted effect of over 65% in size; many hits overshoot -100%
Target sequence (P80244 whole entry, looked up): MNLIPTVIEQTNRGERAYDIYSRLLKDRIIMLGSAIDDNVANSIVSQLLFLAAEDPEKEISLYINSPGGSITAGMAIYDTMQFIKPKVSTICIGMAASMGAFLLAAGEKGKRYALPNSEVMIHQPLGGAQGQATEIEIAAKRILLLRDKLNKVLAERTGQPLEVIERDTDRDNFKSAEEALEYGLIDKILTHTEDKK
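Purified B. subtilis ClpP, 10 microg/mL final in Tris/HCl pH8 with KCl, BSA, glycerol and Tween-20, cleaved an Abz/nitrotyrosine-quenched decapeptide. Fluorescence (ex 320, em 430) was read at 0 and 20 min at room temperature. Delta was normalized to 5.8 microM ADEP and DMSO/no-enzyme controls.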
TRPML1 ag: qHTS for Agonists of the Human Mucolipin Transient Receptor Potential 1 (TRPML1); TRPML1-expressing cells, Ca2+ dye fluorescence, FDSS; host cell line not named in the record; reference of the full effect not given here; AID 624414, 2012; 410,000 compounds, 0.12% hits; activation, % (no concentration beside the values); Mucolipin-1 (Homo sapiens), Q9GZU1; in the data active = activation above about 50%; inconclusive = about 30% to 50%; inactive = below about 30%; note: 0% is about no effect; the text of the record puts the active cut at 80%
Target sequence (Q9GZU1 whole entry, looked up): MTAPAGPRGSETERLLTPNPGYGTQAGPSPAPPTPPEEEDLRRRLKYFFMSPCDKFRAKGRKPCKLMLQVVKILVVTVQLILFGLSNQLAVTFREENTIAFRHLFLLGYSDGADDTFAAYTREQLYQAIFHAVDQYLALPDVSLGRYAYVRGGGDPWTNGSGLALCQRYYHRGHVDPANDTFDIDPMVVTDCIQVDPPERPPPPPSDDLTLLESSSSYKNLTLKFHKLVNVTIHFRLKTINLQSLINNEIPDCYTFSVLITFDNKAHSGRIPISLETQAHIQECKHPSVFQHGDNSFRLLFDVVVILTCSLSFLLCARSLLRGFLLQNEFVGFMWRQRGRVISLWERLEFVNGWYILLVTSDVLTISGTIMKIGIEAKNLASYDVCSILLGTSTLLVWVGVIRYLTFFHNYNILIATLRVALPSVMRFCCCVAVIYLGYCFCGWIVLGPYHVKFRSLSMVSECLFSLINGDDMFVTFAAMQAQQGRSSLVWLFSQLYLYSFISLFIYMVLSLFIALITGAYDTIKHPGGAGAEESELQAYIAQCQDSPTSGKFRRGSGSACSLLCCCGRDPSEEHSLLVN
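TRPML1-DL cells, Tet-induced overnight (~16 h, 37 degrees C), loaded 45-90 min at room temperature with Ca8 no-wash calcium dye plus quencher. FDSS fluorescence: 10 s baseline, compound pin-transfer, 110 s agonist read, then EC80 54-4 (4uM final) and 110 s antagonist read.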
TRPML1 inh: qHTS for Inhibitors of the Human Mucolipin Transient Receptor Potential 1 (TRPML1). activity change, negative = inhibition, % (test concentration not listed). AID 624415, 2012. TRPML1-inducible cells, Ca2+ dye fluorescence, FDSS; active compounds read low; inhibition of EC80 agonist-evoked calcium signal. Mucolipin-1 (Homo sapiens), Q9GZU1. 390,000 compounds, 0.02% hits; in the data active means activity change below about -50%; inconclusive means about -30% to -50%; inactive means above about -30%;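 note: stimulus is agonist 54-4 at its EC80 concentration; % is set by controls: 0 for no effect and ±100 for the full control effect; compound concentration not given in the record; the text of the record puts the active cut at -80%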
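TRPML1-DL cells, Tet-induced overnight (~16 h, 37 °C) at 1,500 cells/well, were loaded with Ca8 no-wash dye plus quencher for 45-90 min at room temperature. Compounds were pinned during FDSS kinetic reading; agonist 54-4 at EC80 (4 uM final) then added.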
Menin MLL FP FL: qHTS Assay for Inhibitors Targeting the Menin-MLL Interaction in MLL Related Leukemias: Competition With Fluorescein Labeled MLL-derived Peptide; 290,000 tested, under 10 active; Fluorescence polarization, fluorescein-MLL peptide displacement from menin; FP activity change, % at 61.4 µM; inconclusive = falling polarisation curve, or a change in total fluorescence; inactive = total fluorescence flat and polarisation flat or rising; no compound was filed as active; the % refers to the polarisation; negative = inhibition;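 note: % of control where 0% means no effect; inhibitors lower the polarisation; unlabelled MLL peptide was the positive control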
PINK1 modulator: A Quantitative High throughput Screen to Identify Chemical Modulators of PINK1 Expression | 410,000 compounds, 0.2% hits | Potency, µM (doses to about 76.6 µM), for the others: at the top dose activation (PINK1 increase), most hits filed as activators | PINK1 immunofluorescence, high-content cytometry, 24 h; active = well fitted activation curve with a large enough effect; inconclusive = small, poorly fitted or top-dose-only effect; inactive = flat fitted curve, though single readings scatter; cell line not stated here;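 note: potency is the fitted concentration of half-maximal effect; % of control where 0% means no effect; nearly all actives have a fitted effect of over 65% in size; a mitochondrial uncoupler was the plate control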
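Measures PINK1 amount and localization on or inside mitochondria by immunofluorescence. Stable cells get compounds at 5 concentrations for 24 hours before fixation and staining; CCCP controls included.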
* marks the source's active call; other numbers are inactive results; ? = inconclusive; . = no result given; [ ] = dose if it differs, or a comment. Rows are unselected (roughly 4.4% active in at least one column).

SMILES	Sfp inh	TRPV1 PAM	ClpP mod	TRPML1 ag	TRPML1 inh	Menin MLL FP FL	PINK1 modulator
O=C(Nc1ccc(CN2CCS(=O)(=O)CC2)cc1)c1ccc(F)cc1	4%	1	-0.1%	0.6	-2	1.2	-2.0%
CN(CC(=O)Nc1ccccc1Cl)C(=O)COC(=O)CSc1ccc(F)cc1	.	3	1.1%	0.7	0	.	4.1%
CC(C)(C)NC(=O)NC(=O)CN1CCC(Cc2ccccc2)CC1	3%	-12	.	-0.9	53	-0.5	7.2%
O=C(NCCc1ccccc1)c1ccc(NC(=O)c2cccnc2)cc1	20%	8	0.5%	-0.3	2	1.2	3.2%
COc1cc2c(C#N)c(N3CCOCC3)nc(N)c2c(N)n1	-16%	-25	16µM*	0.5	48	0.6	-0.7%
CCn1c(CC(=O)Nc2ccccc2F)nnc1SCC(=O)N1CCOCC1	14%	2	-1.9%	0.1	-11	3.0	0.0%
O=C(c1cc(-c2ccccc2)nc2ccccc12)N1CCCc2ccccc21	12%	-5	1.6%	1.4	-3	1.5	3.8%
COC(=O)c1c(C)oc2c1cc(NS(=O)(=O)c1cccs1)c1ccccc12	-14%	30	-2.3%	1.3	41	0.3	2.6%
O=C(CN1CCN(c2ccc(F)cc2)CC1)NCc1ccc(Cl)cc1	3%	-11	-1.5%	-0.9	4	2.7	2.3%
Cc1ccc(C(C)C)c(OCC(=O)OCC(=O)NC2CC2)c1	.	.	.	0.8	2	.	1.0%
CC(=O)NCCn1c(SCc2cc(F)ccc2F)nc2ccccc2c1=O	25%	15	-0.9%	-0.6	-3	-0.6	30%[38.3 µM]
C/C(=N\Nc1nccnc1Cl)c1ccc([N+](=O)[O-])cc1	79µM*	9	-0.6%	-0.3	3	1.3	3.4%
COc1ccccc1C(=O)N1CCN(C(=O)COc2cccc(C)c2)CC1	12%	-8	-2.9%	-0.2	-8	-0.5	0.0%
CCCOC(=O)Nc1ccccc1C(N)=O	6%	-4	-3.6%	-1.0	24	-1.3	2.4%
CC1(C)OC(c2ccccc2)=C/C(=C/C=C2C(=O)c3ccccc3C2=O)O1	-6%	8	.	0.8	-7	?	5.6%
Cn1c(NC2CCCCC2)cc(=O)n(C)c1=O	8%	5	0.5%	1.1	7	2.5	5.0%
COc1ccc(/C=N/NC(=S)Nc2cccc(C(=O)O)c2)cc1OC	-18%	6	-13%	0.7	-9	4.1	-0.6%
O=C(c1ccc(Cl)c(S(=O)(=O)N2CCOCC2)c1)N1CCN(c2ccccn2)CC1	.	-8	-29%	-0.2	-8	.	2.8%
COc1ccc(C(=O)N2CCC3(CC2)CN(c2ccccc2)C3)cc1	-20%	.	.	.	.	2.3	-0.6%
COc1ccc(Nc2cc(C(=O)NCc3ccccc3)c3ccccc3n2)cc1OC	.	.	-10%	2.2	0	.	1.0%
CCOC(=O)[C@@H]1[C@H]2COc3cc(OC)ccc3[C@@H]2N2C(=O)N(c3ccc(C)cc3)C(=O)[C@]12C	.	.	-4.0%	-0.5	21	.	-0.2%
O=C1COc2ccc3ccccc3c21	10%	5	-0.1%	-0.1	15	4.6	-0.4%
CCOC(=O)c1c(C)[nH]c(C(=O)OCC(=O)NCc2ccccc2)c1C	.	.	0.5%	1.5	1	.	4.1%
COc1ccc(-n2nnc(C(=O)Nc3ccccc3F)c2N)cc1	.	.	-2.7%	0.2	-9	.	-3.0%
CCNC(=O)NC(=O)COC(=O)c1ccccc1SCC(=O)NC(=O)NCC	?	6	403%	-0.1	15	-4.9	-1.2%
O=C(Nc1ccccc1Cl)c1ccc2c(c1)N(Cc1ccc(F)cc1)C(=O)CS2=O (centres undefined)	6%	-5	1.9%	0.1	8	1.5	0.8%
O=C(CN1C(=O)NC2(CCCc3ccccc32)C1=O)c1ccc(Br)cc1 (centres undefined)	.	5	0.8%	-0.1	-13	.	3.9%
N=c1c(C(=O)NC2CCCC2)cc2c(=O)n3ccccc3nc2n1C1CCCC1	4%	12	3.2µM*	2.2	-6	5.1	.
Cc1nc(C)c(-c2csc(Nc3cccnc3)n2)s1	-12%	11	-20%	2.7	34	-0.2	-18%[38.3 µM]
CC1=NN(C(=O)c2c(Br)c(C)nn2C)C(O)(C(F)(F)F)C1 (centres undefined)	16%	0	-1.6%	0.4	-13	3.3	4.6%

Entries from the list above that contain an aryl thioether with sulfur outside any ring:
SMILES	Sfp inh	TRPV1 PAM	ClpP mod	TRPML1 ag	TRPML1 inh	Menin MLL FP FL	PINK1 modulator
CN(CC(=O)Nc1ccccc1Cl)C(=O)COC(=O)CSc1ccc(F)cc1	.	3	1.1%	0.7	0	.	4.1%
CCn1c(CC(=O)Nc2ccccc2F)nnc1SCC(=O)N1CCOCC1	14%	2	-1.9%	0.1	-11	3.0	0.0%
CC(=O)NCCn1c(SCc2cc(F)ccc2F)nc2ccccc2c1=O	25%	15	-0.9%	-0.6	-3	-0.6	30%[38.3 µM]
CCNC(=O)NC(=O)COC(=O)c1ccccc1SCC(=O)NC(=O)NCC	?	6	403%	-0.1	15	-4.9	-1.2%

(cont.)
SMILES	Sfp inh	TRPV1 PAM	ClpP mod	TRPML1 ag	TRPML1 inh	Menin MLL FP FL	PINK1 modulator
CCOC(=O)N1CCC(N2Cc3cccc(C(=O)NCC4CCN(CC(C)C)C4)c3C2=O)CC1 (centres undefined)	-17%	6	-2.1%	-0.4	4	-0.8	0.3%
O=C(CN1CCCCCC1)NCC1CCCO1 (centres undefined)	-13%	-6	0.6%	1.0	11	-4.3	-0.8%
CC(=O)Nc1ccc(NC(=O)C(NS(=O)(=O)c2ccc(Br)s2)c2ccccc2)cc1 (centres undefined)	.	.	-0.4%	2.1	-2	.	4.2%
CCc1cccc2c(C(=O)C(NC(C)CC)c3ccccc3)c[nH]c12 (centres undefined)	18%	-8	.	4.5	-11	3.2	?
CN1C(=O)C(C)(C)c2cc(S(=O)(=O)N(C)Cc3ccccc3)ccc21	15%	18	-0.6%	-0.8	21	-4.2	1.4%
O=C(NCc1nnnn1-c1ccc(F)cc1)c1cc2ccccc2o1	.	.	-21%	-0.5	-13	.	1.1%
OC(c1cccc(Cl)c1)c1nc(-c2ccc(Cl)cc2)cs1 (centres undefined)	.	.	-0.2%	-0.1	-17	.	10%
CCc1cc(CNC(=O)CC2C(=O)NCCN2Cc2ccccc2C(F)(F)F)on1 (centres undefined)	2%	2	.	1.0	-11	-16	0.8%
COc1ccc(C(=O)N/N=C/c2ccc3cccc(O)c3n2)cc1	-7%	7	.	0.9	9	-1.1	5.1%
COc1ccc(Nc2nc(CC(C)=O)ns2)cc1OC	-7%	8	-0.8%	0.1	-12	1.8	0.8%
O=C(CN1C(=O)NC2(CCc3ccccc32)C1=O)Nc1ccccc1C(F)(F)F (centres undefined)	.	-2	-1.7%	1.0	-8	.	1.4%
O=C(COC(=O)c1ccc(Cl)nc1)NCCc1ccc(F)cc1	.	.	-7.1%	0.4	10	.	-1.9%
Cc1ccc(CCc2nnc(SCC(=O)Nc3cccc(Cl)c3)n2-c2ccccc2)o1	13%	16	0.9%	4.3	-1	2.9	7.6%
O=C(CN1C(=O)NC2(CCCC2)C1=O)N1CCN(S(=O)(=O)c2cccc(F)c2)CC1	1%	?	-0.7%	0.6	10	.	-0.1%
COc1ccc(OC)c(NC(=S)NCC(c2cccnc2)N2CCOCC2)c1 (centres undefined)	-9%	3	0.0%	1.6	-11	-0.2	0.3%
COc1ccc(S(=O)(=O)c2cn(C)c3cc(N4CCCCC4)c(F)cc3c2=O)cc1	.	.	6.3%	-0.6	9	.	-0.7%
CC(=O)NC1CC2CCC(C1)N2Cc1ccc(C)cc1 (centres undefined)	2%	1	2.0%	1.0	-4	-0.5	0.6%
O=S(=O)(CC(O)(c1ccccc1)c1ccccc1)CC(O)(c1ccccc1)c1ccccc1	.	.	-4.0%	4.1	17	.	5.9%
O=C(NC(=S)NNC(=O)c1ccc(Cl)cc1Cl)c1cccnc1	45µM*	-2	-2.7%	0.1	19	6.3	0.8%
NC(=O)C1CC12c1ccccc1-c1ccccc12 (centres undefined)	8%	-9	.	2.5	-7	-1.3	0.9%
CCSc1ncc(Cl)c(C(=O)Nc2sc3c(c2C(=O)OC)CCCC3)n1	.	.	1.3%	-0.5	.	.	0.5%
O=C(Nc1ccccc1C(=O)Nc1nccs1)c1ccccc1	.	.	75%	-1.1	.	.	2.3%
COC(=O)c1ccc(COc2ccccc2/C=C(\C#N)C(=O)Nc2ccc(C)cc2)cc1	13%	-5	-0.6%	2.5	16	-1.9	?
Cc1c(CN2CCC(C)CC2)c(=O)n(-c2ccccc2)n1C	11%	-6	0.0%	1.9	-9	6.6	1.8%[38.3 µM]
O=C1C=C(Nc2ccccc2)C(=O)c2ccccc21	-16%	-11	-1.6%	2.6	26	-5.5	0.2%
CCOC(=O)c1c(NC(=O)Nc2ccccc2)sc(C)c1C	-9%	-14	20µM*	0.4	-7	1.2	5.7%
Cc1ccc2c(c1)c(N=Nc1cccc(C(=O)O)c1)c(O)n2C	13%	-4	-2.9%	1.9	-2	-1.7	-0.1%
O=C(Nc1nccs1)C1CCN(S(=O)(=O)c2cccs2)CC1	22%	-19	0.3%	-0.3	16	2.0	-0.2%
O=[N+]([O-])c1cc(S(=O)(=O)N2CCCC2)ccc1SCCO	15%	-10	.	0.3	16	2.9	0.6%
CCN(CC)CCNc1nc2c(c(=O)[nH]c(=O)n2C)n1CC(O)COc1ccc(Cl)cc1Cl (centres undefined)	4%	?	0.1%	0.5	2	0.5	1.0%
